TsaE inh = YjeE (TsaE) inhibition, E. coli | P0AF67 | purified YjeE, fluorescence polarisation of a bound ADP probe | Potency, µM | 0.05% of 71,000 active | AID 605; active = well fitted falling curve; inconclusive = weaker or top-dose-only fall, or a rising curve; inactive = flat or poorly fitted curve;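 further: top concentration of the series not given in the record; excess ADP was the control for the full effect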
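Purified YjeE (10 uM) with BODIPY Texas Red-labeled ADP probe (2 uM); compounds pin-transferred, 15 min at room temperature. Binding inhibition read as decreased fluorescence polarization; ADP titration as control.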
PK Bst = pyruvate kinase (B. stearothermophilus) modulation | partly purified Bacillus stearothermophilus pyruvate kinase, luminescence ATP production; ribose 5-phosphate activator present at AC10 | Potency, µM | 1.2% of 51,000 active; in the data active means potency below about 11 µM; inconclusive means mostly about 12 µM to 25 µM; inactive means weaker than that;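 the screen sought inhibitors and activators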;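 further: potency means the concentration at half of the fitted maximal effect; scaled between full activation by ribose 5 phosphate and full inhibition by luteolin; about four in five hits inhibit and the cells do not say which; series up to 57 µM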
The depositor's hits bear a star; i = inactive; ? = inconclusive; · = not tested or not shown.

TsaE inh | PK Bst | SMILES
i | · | CCOC(=O)C1OC1c1ccccc1 (configuration not stated)
i | >57 | O=C(CN(Cc1ccco1)C(=O)CNS(=O)(=O)c1ccc(Cl)cc1)NC1CCCCC1
i | >57 | COc1ccc(C2C(C(N)=O)=C(C)Nc3ncnn32)cc1 (configuration not stated)
i | · | CC(=O)[C@@H]1[C@H]2[C@@H](C(=O)[C@H]3OC[C@H]2O3)[C@@H]2C=Cc3ccccc3N12
i | · | CN(CCc1ccccn1)c1ccc2c(c1)Cc1ccccc1-2
i | · | CC1=C(C(=O)OC2CCCCCCC2)C(c2ccc(O)cc2)NC(=O)N1 (configuration not stated)
i | >57 | CCn1c(SCc2nc3ccccc3[nH]2)nnc1-c1ccncc1
i | >57 | O=C(CSc1nnc(-c2cccnc2)n1Cc1ccco1)c1ccccc1
i | >57 | CCOC(=O)C1CCCN(C(=O)CS(=O)(=O)Cc2ccccc2)C1 (configuration not stated)
i | · | O=C(NC1CCCCC1)c1sc(=S)n2c1[nH]c(=O)c1ccccc12
i | · | O=C(c1csnn1)N1CCC2(CCN(Cc3nccs3)CC2)CC1
i | · | O=c1c(-c2ccc(F)c(F)c2)nc2cncnc2n1Cc1ccc(F)cc1
i | >57 | CN(Cc1ccccc1)c1nc2c(c(=O)n(C)c(=O)n2C)n1CCCc1ccccc1
i | >57 | Cc1[nH]c(=O)[nH]c(=O)c1S(=O)(=O)N1CCCC(C(=O)N2CCN(c3ccccc3Cl)CC2)C1 (configuration not stated)
? | >11.4 | Cc1nc2sccn2c(=O)c1CCN1CCC(=C(c2ccccc2)c2ccc(F)cc2)CC1
i | >57 | CCOC(=O)CNC(=O)Cn1cnc2c(nnn2-c2cccc(Cl)c2)c1=O
i | >57 | CCOc1ccc(S(=O)(=O)N(CC(N)=O)c2ccc(C)cc2)cc1
i | · | CC1CCN(C(=O)C(Cc2ccccc2)n2cccc2)CC1 (configuration not stated)
i | >57 | COCC(=O)Nc1nnc(CCc2ccccc2)s1
i | >57 | Cc1nn(CC(=O)NCc2ccccc2)c(=O)c2ccccc12
i | >57 | C/C(N)=C(/C#N)C(=O)COC(=O)c1ccncc1
i | >57 | N#CC1=C2SCN(Cc3ccccc3)CN2C(=O)CC1c1ccc2c(c1)OCO2 (configuration not stated)
i | · | N#Cc1c(NC(=O)c2ccncc2)sc2c1CCC2
i | · | O=C(C1CCN(S(=O)(=O)c2ccc(F)cc2)CC1)N1CCOCC1
i | >57 | COc1ccc(NC2=C(C(C)=O)C(c3ccc4c(c3)OCO4)C(C(C)=O)C(C)(O)C2)cc1 (configuration not stated)

Brought forward from above: four compounds; new compounds follow.
TsaE inh | PK Bst | SMILES
i | >57 | N#CC1=C2SCN(Cc3ccccc3)CN2C(=O)CC1c1ccc2c(c1)OCO2 (configuration not stated)
i | · | N#Cc1c(NC(=O)c2ccncc2)sc2c1CCC2
i | · | O=C(C1CCN(S(=O)(=O)c2ccc(F)cc2)CC1)N1CCOCC1
i | >57 | COc1ccc(NC2=C(C(C)=O)C(c3ccc4c(c3)OCO4)C(C(C)=O)C(C)(O)C2)cc1 (configuration not stated)
i | >57 | C/C(NCCCn1ccnc1)=C(\C#N)C(N)=O
i | >57 | Cc1cc(C)cc(CC2CC(=O)N(c3nc(C)cc(C)n3)C2=O)c1 (configuration not stated)
i | >57 | CC(C)COCC1CC2(CC(C)C(=O)CC2=O)C(=O)O1 (configuration not stated)
· | >25.6 | CC(C)Cc1nc2n[nH]c(N)c2c2c1CCC2
i | >57 | O=C(O)CN(c1ccc2c(c1)OCCO2)S(=O)(=O)c1ccccc1
i | >57 | COc1ccc(-c2c(C(F)(F)F)oc3c(CN4CCN(C)CC4)c(O)ccc3c2=O)cc1
i | >57 | CC(=O)c1c(C)[nH]c(C(=O)NC2=NCCS2)c1C
i | >57 | CC(=O)N1CCc2cc(S(=O)(=O)NCCC(=O)NCCc3ccccc3)ccc21
i | · | CCN1CCC[C@@H]1CNC(=O)c1cc(S(N)(=O)=O)ccc1OC
i | · | c1ccc(CNc2ncnc3ccc(-c4cccnc4)cc23)cc1
i | · | CCc1ccc2c(c1)N(C[C@H](C)CN(C)C)c1ccccc1S2
i | >57 | Cc1cccc(NC(=O)c2cc(NC(=O)C3CCCCC3C(=O)O)ccc2N2CCCCC2)c1 (configuration not stated)
i | >57 | CSC1=C(C#N)C(c2ccc(C)cc2)C2=C(CCCC2=O)N1 (configuration not stated)
i | · | c1ccc2c(CCNc3ncnc4nc[nH]c34)c[nH]c2c1
i | >57 | O=C(OCc1cc2ccccc2[nH]c1=O)c1ccncc1
i | >57 | COc1ccccc1-n1cnnc1SC1CCOC1=O (configuration not stated)
i | >57 | O=c1cc(NCc2ccco2)[nH]c(=O)n1-c1ccc(Br)cc1
i | >57 | Cn1c(=O)c2cc(S(=O)(=O)NCCC(=O)Nc3ccccc3F)ccc2n(C)c1=O
i | >57 | CC1CCCCN1S(=O)(=O)c1ccc2c(c1)oc(=O)n2CC(=O)O (configuration not stated)
i | >57 | O=C(NCc1ccco1)C1CC(=O)N(c2ccc(O)cc2)C1 (configuration not stated)
i | >57 | O=C(CSc1nnc(-c2cccnc2)n1-c1ccccc1)Nc1ccccn1
i | >57 | COCCn1c(SCC#N)nnc1-c1ccc2c(c1)OCO2
i | >57 | CCC(C)c1ccc(O)c(NC(=O)c2ncn[nH]2)c1 (configuration not stated)
i | >57 | COC(=O)c1ccc(C(=O)OC)c(N)c1
i | · | COc1ccccc1S(=O)Cc1ccc(C(=O)NCc2ccccc2Cl)o1 (configuration not stated)

Later entries
TsaE inh | PK Bst | SMILES
i | >57 | Cc1n[nH]c(=O)nc1N1CCc2ccccc2C1
i | · | CN(C)CC(=O)c1ccc(-c2ccccc2)cc1
i | 0.536* | Cc1ccc(-c2nc(-c3ccccn3)no2)cc1Cl
i | >57 | CCn1c(=O)c(C(=O)Nc2nc3ccccc3[nH]2)c(O)c2ccccc21
i | >57 | COc1ccc(CCNC(=O)CSc2nc3c(c(=O)n(C)c(=O)n3C)n2C(C)C)cc1OC
i | >57 | CCOc1cc(S(=O)(=O)N2CCOCC2)ccc1F
i | · | CC1CCCCN1C(=O)COc1ccc(NC(=O)c2ccco2)cc1 (configuration not stated)
i | >57 | Cc1cc(=O)c2n(Cc3ccccc3Cl)nc[n+]2[nH]1
i | · | CS(=O)(=O)Nc1cccc(-c2nc(Nc3ccncc3)c3ccccc3n2)c1
i | >57 | CC(=O)N1c2ccccc2C(C)CC12CCCCC2 (configuration not stated)
i | >57 | COc1ccc(C(=O)N2CCN(C(=O)c3ccco3)CC2)cc1OC
· | ? | COc1ccc(OCC(=O)N2CCN(C(=O)c3cccc4ccccc34)CC2)cc1
i | >57 | O=c1[nH]c(=S)c2c(n1-c1ccccc1)CCC2
i | >57 | O=c1c2ccccc2nnn1CSc1nnc(-c2ccc3c(c2)OCO3)o1
i | >57 | CCn1c(SCC(=O)N2c3ccccc3CCc3ccccc32)nc2c1c(=O)n(C)c(=O)n2C
i | >57 | CC(C(=O)NC1=NCCS1)N1C(=O)C2CC=CCC2C1=O (configuration not stated)
i | · | CCOc1cccc(C(=O)Nc2cccc(-c3nc4ncccc4o3)c2C)c1
i | >57 | CCOP(=O)(c1ccc(N(C)C)cc1)C(O)c1cc(OC)c(OC)c(OC)c1 (configuration not stated)
i | · | CC(=O)c1cccc(NC2c3ccccc3C(=O)N2Cc2ccc3c(c2)OCO3)c1 (configuration not stated)
i | >57 | CC(=O)N1CCN(c2ccc(NCc3ccc(C(C)C)cc3)cc2)CC1
i | · | COc1cc2c(cc1OC)-c1nnc(C)n1C1(CCCC1)C2
i | · | CN1CCN(CCCNC(=O)c2ccc(CSCc3cccc(Cl)c3)o2)CC1
i | >57 | Cc1ccc(Oc2ccc(OCC(=O)NC(C)C(=O)O)cc2)cc1 (configuration not stated)
i | · | Cc1cc(C(F)(F)F)n2ncc(C(=O)O)c2n1
i | · | COc1ccc(-c2nc3cnc(Oc4ccccc4)nc3n(C3CC3)c2=O)cc1

(next part)
TsaE inh | PK Bst | SMILES
i | · | CSCC[C@@H](C(=O)O)N(C)C
i | · | COC(=O)c1ccc(C2c3c(oc4cc(C)c(C)cc4c3=O)C(=O)N2CCCN(C)C)cc1 (configuration not stated)
i | · | CCSC(C)CC1C/C(=N/O)c2c(CC)noc2C1 (configuration not stated)
i | >57 | COc1ccc2c(c1)Sc1ccccc1N2CCN(C)C
i | >57 | COc1ccc(C)cc1NCc1cccc(OC)c1OC
i | · | Cc1ccc(-c2nc(NC(=O)CSc3nnc4scc(-c5ccccc5)n34)ns2)cc1
i | · | COc1ccc(-c2nc3cnc(N4CCOCC4)nc3n(Cc3cccs3)c2=O)cc1
i | · | CS(=O)(=O)c1ccc([C@H](O)[C@H](CO)NC(=O)C(Cl)Cl)cc1
i | >57 | CCCN(Cc1ccccc1)C(=O)Nc1ccc2c(c1)nnn2C
i | >57 | COC(=O)Cc1[nH]nc2c1C(c1c[nH]c3ccccc13)C(C#N)=C(N)O2 (configuration not stated)
i | · | CC1(C)Oc2ccc3ccc(=O)oc3c2-c2cnoc21
i | >57 | OC(CN1CCOCC1)CN1CCOCC1
i | >57 | Cn1c(=O)c2c(nc(SCCCO)n2Cc2ccccc2Cl)n(C)c1=O
i | >57 | Clc1ccc(OCc2nnc3n2N=C(c2ccc4c(c2)OCCO4)CS3)c(Cl)c1
i | ? | Cc1cc(C)n(C(=O)C2CCCN2S(=O)(=O)c2ccc(Cl)cc2)n1 (configuration not stated)
i | · | O=C(O)c1nn(-c2ccccc2-c2n[nH]c(=O)[nH]c2=O)c(=O)[nH]c1=O
i | >57 | CCCS(=O)(=O)N1CCC(C(=O)NCCCOC)CC1
i | >57 | O=C(OCc1nnc(-c2ccccc2)o1)c1ccc2c(c1)C(=O)N(CCc1ccccc1)C2=O
i | >57 | CCOC(=O)c1sc(C)nc1C1CCN(C(=O)OCC)CC1
i | >57 | Cc1ccc(C)c(N2CCN(c3cc(C)nc4nnnn34)CC2)c1
i | · | COc1cccc(C2N(c3cccc(Cl)c3)C(=O)C3CCCN32)c1OC (configuration not stated)
i | >57 | CCN1C(=O)c2cccc3c(S(=O)(=O)NCCCN4CCOCC4)ccc1c23
i | >57 | CCN1CCN(c2nc3c(c(=O)n(C)c(=O)n3C)n2Cc2cccc3ccccc23)CC1
i | >57 | CCOc1ccccc1-n1nnnc1SCC(=O)NC(=O)NCc1ccco1
i | · | COCCOC(=O)c1ccccc1C(=O)OCCOC

Two entries from above, with two lines to a compound:
Every second line gives: TsaE inh, PK Bst
- Cc1nc2sccn2c(=O)c1CCN1CCC(=C(c2ccccc2)c2ccc(F)cc2)CC1
→ ?, >11.4
- CCOC(=O)CNC(=O)Cn1cnc2c(nnn2-c2cccc(Cl)c2)c1=O
→ i, >57

Whole records, looked up by structure. Screens in order: TsaE inh	PK Bst
COc1cccc(C2N(c3cccc(Cl)c3)C(=O)C3CCCN32)c1OC (configuration not stated) is listed with i	·
COc1ccc(C)cc1NCc1cccc(OC)c1OC is listed with i	>57

Next part.
TsaE inh | PK Bst | SMILES
i | >57 | CCC(=O)N(Cc1cc2cc(C)c(C)cc2[nH]c1=O)C1CCCCC1
i | · | CCOC(=O)c1c(C)nc2cc(C)ccn12
i | · | O=C(Nc1nncs1)c1ccccc1Br
i | 1.84* | Cc1ccc2nc3sc(C(=O)N4CCOCC4)c(N)c3cc2c1
i | · | COc1ccc(C2C3=C(N=C4SCC(=O)N42)c2ccccc2CC3)cc1 (configuration not stated)
i | >57 | O=C1CC(N2CCN(c3ccc(C(=O)c4ccc(F)cc4)cc3)CC2)C(=O)N1 (configuration not stated)
i | >57 | CC(=O)NC(C)C12CC3CC(CC(C(=O)O)(C3)C1)C2 (configuration not stated)
i | · | CCc1ccc(Cn2nnc(C(=O)Nc3ccc(OC)cc3OC)c2N)cc1
i | · | Cc1c(NC(=O)CSc2nnc(-c3ccco3)n2-c2ccccc2)c(=O)n(-c2ccccc2)n1C
i | · | Cc1ccc(C)c(N(C)C(=O)COc2cc(=O)n(C)c3ccccc23)c1
i | >57 | O=C(CN(Cc1ccccc1C(F)(F)F)C(=O)CNC(=O)c1ccco1)NC1CCCC1
i | >57 | COc1ccccc1N1CCN(c2nc3ccccc3nc2C(C#N)C(=O)OC(C)C)CC1 (configuration not stated)
i | >57 | O=C(CCCCn1c(=S)[nH]c2ccsc2c1=O)NCc1ccco1
i | >57 | COCCn1c(SCC(=O)Nc2ccc3c(c2)OCCO3)nnc1-c1c[nH]c2ccccc12
i | · | O=C(/C=C/Nc1cccc(O)c1)c1ccccc1
i | >57 | CCC1(C)NC(=O)N(CC(=O)Nc2sc3c(c2C(N)=O)CCC3)C1=O (configuration not stated)
i | i | COCC(N)(c1ccccc1)c1nc2ccccc2n1C (configuration not stated)
i | · | C[C@@H]1c2ccccc2Cn2cc3c(c21)C(=O)c1cccc(OP(=O)(O)OCc2ccccc2)c1C3=O
i | >57 | Cc1ccc(NC(=O)c2ccc(NS(=O)(=O)c3c(C)noc3C)cc2)cc1C
i | · | Cc1ccc(C2=C(Cl)C(=O)C(c3ccc(C)cc3)=C(Cl)C2=O)cc1
i | · | CC(O)COC(C)(C)C (configuration not stated)
i | >57 | COc1ccccc1Nc1ncc(C(=O)N2CCC(C(N)=O)CC2)c2ccccc12

Two successive entries already listed:
TsaE inh | PK Bst | SMILES
i | · | CC(O)COC(C)(C)C (configuration not stated)
i | >57 | COc1ccccc1Nc1ncc(C(=O)N2CCC(C(N)=O)CC2)c2ccccc12

Not all compounds are listed; rates above refer to the full screens.
